# VDR inhibitor – inhibitors of human vitamin D receptor | Potency, µM, inactives show max response, negative = inhibition, actives largely listed as inhibitors | VDR-SRC2-3 peptide fluorescence polarization, 2 h | AID 504847 | P11473 | hit rate 0.93% among 400,000; active = well fitted inhibition curve with a large enough effect; inconclusive = small, poorly fitted or top-dose-only effect, or another doubt; inactive = no such curve, though single readings can be large or run the other way; also: series mostly up to about 120 µM
# Target sequence (P11473 whole entry, looked up): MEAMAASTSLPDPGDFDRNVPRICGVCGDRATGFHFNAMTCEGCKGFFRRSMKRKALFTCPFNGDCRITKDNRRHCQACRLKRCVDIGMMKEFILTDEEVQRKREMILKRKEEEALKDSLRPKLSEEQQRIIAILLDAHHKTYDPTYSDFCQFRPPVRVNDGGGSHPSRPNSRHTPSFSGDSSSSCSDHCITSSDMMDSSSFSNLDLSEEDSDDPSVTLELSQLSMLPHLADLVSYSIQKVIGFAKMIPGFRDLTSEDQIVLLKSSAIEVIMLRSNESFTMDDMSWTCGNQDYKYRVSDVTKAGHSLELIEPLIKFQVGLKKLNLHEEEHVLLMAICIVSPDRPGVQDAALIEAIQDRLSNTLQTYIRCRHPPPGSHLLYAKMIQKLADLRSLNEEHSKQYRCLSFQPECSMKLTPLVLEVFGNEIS
#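 Fluorescence polarization assay of small-molecule disruption of VDR binding to coregulator peptide SRC2-3. Compounds and controls pin-transferred, then read after 2 h incubation at ambient room temperature.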
# * marks the source's active call; other numbers are inactive results; ? = inconclusive; [ ] = remark or other dose. % is scaled to controls: 0 for no effect and ±100 for the full control effect; potency is read from the fitted curve at half-maximal effect. These rows are one share of the data (hit frequency here may not be typical).
SMILES,VDR inhibitor
C[n+]1cccc(/C=N/NC(=O)CC23CC4CC(CC(C4)C2)C3)c1,-1.1%
CCN1C(=O)/C(=C\N(C)C)NC1=S,-14.5%
COc1ccc(OC)c(N2C(=O)CC(Cc3ccc(C)cc3)C2=O)c1 (stereo not drawn),-0.5%
COc1ccccc1NC(=O)CSc1nnc(NC(=O)C2CC2)s1,11.8%
COCCc1nc2ccc(C(=O)N(C)Cc3cccc(-n4nc(C)cc4C)c3)cc2o1,-0.8%
O=C1[C@@H](Oc2ccccc2)[C@@H](c2cnc3ccccc3c2)N1c1ccccc1,-0.1%
Cc1ccc(-c2cc(N)n[nH]2)cc1,41.6%[activator]
CC1(C)CC(=O)c2cc(OCC(=O)NCCCN3CCN(c4ccccc4F)CC3)ccc2O1,-1.8%
CN(CCO)S(=O)(=O)c1ccc2c(c1)C(=NO)c1cc(S(=O)(=O)N(C)CCO)ccc1-2,-3.7%
COCCCNC(=O)CCCCn1c(=O)c2ccccc2n(CC(=O)Nc2ccc(C)cc2C)c1=O,1.4%
COc1cc(C(=O)N2CCNC(=O)C2CC(=O)Nc2ccc(C)c(C)c2)cc(OC)c1OC (stereo not drawn),-0.9%
Cc1cc(OCCSc2nnc(-c3cccs3)n2C)ccc1Cl,7.5%
Cc1cccc(NC(=O)CSC2=Nc3ccccc3C3=NC(CCC(=O)NCc4ccco4)C(=O)N23)c1 (stereo not drawn),-5.4%
COc1ccccc1OCCNC(=O)CCS(=O)(=O)c1ccccc1,-15.3%
Cc1[nH]nc(-c2ccc(O)c(C)c2O)c1Oc1ccccc1,21.1%
C=CCOC(=O)Nc1c(C(=O)OC)[nH]c2ccc(Cl)cc12,19.0%
CCOc1ccc2c(O)csc2c1,?
COC(=O)CNC(=O)CCCCC(=O)NCC(=O)OC,-22.4%
O=C(CSc1nnc(-c2ccc(C(F)(F)F)cn2)s1)c1ccc(Cl)cc1,4.6%
Cc1cc2c(cc1C)-c1nnnn1C(C)(C)C2,3.0%
Cc1c(CC(=O)NCCC(=O)O)c(=O)oc2cc3occ(-c4ccccc4)c3cc12,0.6%
CN(Cc1ccccc1)c1nc2c(c(=O)[nH]c(=O)n2C)n1Cc1ccccc1,-2.9%
CCOC(=O)C(C)Sc1nc2c(cnn2-c2ccc(F)cc2)c(=O)[nH]1 (stereo not drawn),1.6%
COc1ccc(C)cc1NC(=O)CCN1CCN(c2ccccc2F)CC1,-4.4%
Cc1cc2c(cc1S(=O)(=O)N(CCN(C)C)Cc1ccco1)OCC(=O)N2,8.2%
Cc1ccccc1-c1cncnc1Nc1ccccc1,44.7µM*
CN1OC(COC(=O)c2ccc(Cl)cc2Cl)CC1c1ccccc1 (stereo not drawn),-18.4%
N#C/C(=C\c1c(Oc2ccccc2Cl)nc2ccccn2c1=O)C(=O)NC1CCS(=O)(=O)C1 (stereo not drawn),?
O=C(/C=C/c1ccccc1[N+](=O)[O-])NCc1cccnc1,6.3%
Cn1c(SCC(=O)c2ccccc2)nnc1-c1cccc(N)c1,-6.3%
Cc1nc(SCC(O)CO)c([N+](=O)[O-])[nH]1 (stereo not drawn),3.3%
CCOc1ccccc1NC(=O)N1CCC(NC(=O)C2CCCCC2)CC1,-8.6%
O=[N+]([O-])c1ccc(Cl)cc1C=NNc1ccccn1,14.3%
Cc1ccc(SCC(=O)NCCN2C(=O)CSC2=O)c(C)c1,18.9%
CCC1=NN(C(=O)c2cccnc2)C(O)(C(F)(F)F)C1 (stereo not drawn),7.4%
Cc1ccc(-n2c(N)c(-c3nc4ccccc4n3C)sc2=S)cc1,?
COc1ccc(C2C/C(=N\O)C(C)(C)O2)cc1 (stereo not drawn),11.8%
C=CCn1c(SCC(=O)Nc2cc(C)on2)nc2sc3c(c2c1=O)CCCC3,6.6%
CC(C)CNS(=O)(=O)c1ccc(Br)cc1N1CCC[C@@H]1CO,-8.5%
COc1ccc(CN2CCC(C(N)=O)CC2)cc1OCc1ccccc1,-14.8%
Cc1ccc(Nc2nc(N)nc(CN3CCN(Cc4ccc5c(c4)OCO5)CC3)n2)cc1Cl,2.7%
CCc1ccc(NC(=O)c2cc(CN3CCOCC3)on2)cc1,12.2%
CCN(C(=O)CSc1nnc(COc2ccccc2F)n1N)c1c(N)n(Cc2ccccc2)c(=O)[nH]c1=O,6.5%
COc1cc(C(=O)N2CCN(C(=O)CC(C)C)CC2)cc(OC)c1OC,11.6%
O=C(NC1CCOc2ccccc21)c1ccccn1 (stereo not drawn),16.9%
O=C(Nc1ncc(Cc2ccc(SC(F)F)cc2)s1)c1ccc(OC(F)F)cc1,-15.5%
O=S(=O)(Nc1nnc(C2CC2)s1)c1ccccc1,3.8%
Cc1c(-c2cccc(Cl)c2)nc2ccccc2c1C(=O)OC/C(O)=C(\C#N)c1nc2ccccc2[nH]1,-24.0%
COc1ccc2[nH]c(=O)c(COC(=O)c3ccco3)cc2c1,-12.1%
Cc1cc2c(cc1S(=O)(=O)CCC(=O)N1CCN(c3ccccc3)CC1)OCC(=O)N2,11.7%
# (list continues)
SMILES,VDR inhibitor
Cc1cc(-c2nnc(SCC(=O)Nc3c(C)cccc3C)n2N)n[nH]1,6.9%
CC(C)(C)n1nc2c(c1NC(=O)c1ccc(Br)o1)CS(=O)C2 (stereo not drawn),7.4%
COc1ccc(N(CC(=O)N/N=C/c2ccc(OC3CSC3)cc2)S(=O)(=O)c2ccccc2)cc1,8.8%
CCOC(=O)c1ccc(NC(=O)CSc2nc3c(c(=O)n2CC)SC(C)C3)cc1 (stereo not drawn),1.2%
CCOc1cc(CN2CCOCC2)cc(C(C)=O)c1,6.5%
Cc1ccc(C2CC(=O)NC(SCC(N)=O)=C2C#N)s1 (stereo not drawn),-2.1%
CC(C)NC(=O)c1ccccc1NC(=O)CCS(=O)(=O)Cc1ccccc1,4.5%
CCc1ccc(S(=O)(=O)c2cn(C)c3cc(F)c(F)cc3c2=O)cc1,6.9%
Nc1nc(NC(=O)c2cccnc2)nn1-c1ccccc1,3.3%
O=C(NCC(=O)N1CCN(S(=O)(=O)c2ccc3c(c2)OCCO3)CC1)c1ccccc1F,10.6%
Cc1ccc(NS(=O)(=O)c2ccccc2)c(C)c1,-14.1%
Cc1c(C(=O)OCC(=O)Nc2ccc(C(N)=O)cc2)cccc1[N+](=O)[O-],2.0%
CC1=NNC(=O)c2ccccc2O1,13.6%
COc1cc(-c2csc(NC3CCCCC3)n2)cc(OC)c1OC,5.3%
COc1ccc(C(=O)c2oc3ccccc3c2NC(=O)c2nc(SC)ncc2Cl)cc1Cl,-2.2%
CCN1C(=O)CC2CCCC1C2 (stereo not drawn),-11.0%
Cc1ccc(C2CC2c2n[nH]c(=S)n2-c2cccc(C)c2)cc1 (stereo not drawn),-14.4%
CCOC(=O)C1CCCN(C2CCN(Cc3nc(Cc4ccccc4)no3)CC2)C1 (stereo not drawn),-11.5%
CCCCCC/C(=N/O)c1ccccn1,3.6%
COCCCn1c(SCC(=O)NC2CCCCC2)nc2ccccc2c1=O,-2.4%

# Looked up one by one from the entries so far:
SMILES,VDR inhibitor
CCN1C(=O)CC2CCCC1C2 (stereo not drawn),-11.0%
Cc1ccc(NS(=O)(=O)c2ccccc2)c(C)c1,-14.1%

# As a working copy, some entries already given.
SMILES,VDR inhibitor
C[n+]1cccc(/C=N/NC(=O)CC23CC4CC(CC(C4)C2)C3)c1,-1.1%
CCN1C(=O)/C(=C\N(C)C)NC1=S,-14.5%
COc1ccc(OC)c(N2C(=O)CC(Cc3ccc(C)cc3)C2=O)c1 (stereo not drawn),-0.5%
COc1ccccc1NC(=O)CSc1nnc(NC(=O)C2CC2)s1,11.8%
COCCc1nc2ccc(C(=O)N(C)Cc3cccc(-n4nc(C)cc4C)c3)cc2o1,-0.8%

# The results go on:
SMILES,VDR inhibitor
O=C(CSc1nnc(CNC(=O)c2ccccc2)n1-c1ccc(F)cc1)Nc1ccccc1F,2.7%
O=C(CCS(=O)(=O)Cc1ccccc1)Nc1nnc(C(F)(F)F)s1,-6.4%
Cc1csc(N2CCN(c3cc4c(cc3Cl)nc(-c3ccncc3)n4CCCN3CCCC3)CC2)n1,6.6%
Cc1ccc(C(=O)N2CCNC(=O)C2CC(=O)Nc2ccc(F)cc2)cc1C (stereo not drawn),-14.2%
Fc1cnc(N2CCOCC2)nc1N1CCOCC1,-6.5%
Cc1c(-c2ccc(Cl)cc2)[n+](=O)c(-c2ccccc2)cn1[O-],2.7%
CCOc1ccc(-c2nnc(SCC(=O)NC3CCCCC3)nc2-c2ccc(OCC)c(OC)c2)cc1OC,-3.5%
C=CCSc1nc2ccccc2n2cnnc12,13.6%
COc1ccc(C(=O)C2CCN(S(=O)(=O)c3ccc4c(c3)OCCO4)CC2)cc1,4.2%
Nc1ccn(-c2ccccc2)c(=O)c1,16.6%
CN(C(=O)c1ccc(C#N)cc1)c1nnc(-c2ccccn2)s1,12.5%
O=C(CNc1ccc(Cl)cc1)c1ccc(Br)cc1,-6.2%
CN(C)c1nc(N)nc(CSc2nnnn2-c2ccccc2)n1,-8.7%
CCn1c(-c2csc(C(C)C)c2)n[nH]c1=S,3.7%
CC1CCN(Cc2ccc(NC(=O)CC3Oc4ccccc4NC3=O)cc2)CC1 (stereo not drawn),18.5%
Cc1cc(C)n(-c2ccc3nncn3n2)n1,-2.1%
Cc1ccc(NC(=O)c2ccc(CNS(=O)(=O)c3ccc4c(c3)C(C)(C)C(=O)N4C)cc2)cc1C,4.0%
CCCCC(CC)CNC(=O)CCS(=O)(=O)c1cccc2nsnc12 (stereo not drawn),0.3%
COc1ccc(CCN2C(=O)N(c3ccc(OC)cc3)C(=O)C2CC(=O)Nc2ccc(OC)cc2)cc1 (stereo not drawn),7.9%
Cc1cccc(-c2nc(SCCCOc3cc(C)c(Cl)c(C)c3)n3[nH]c(=O)cc3n2)c1,9.1%
CCOCC(=O)Nc1c(C(=O)OCC)oc2ccccc12,-23.8%
CCOc1ccc(C(=O)c2oc3ccccc3c2NC(=O)c2cc(-c3ccc(Cl)cc3)on2)cc1,-8.7%
CC12CC3CC(C)(C1)CC(C(=O)NNC(=O)c1ccncc1)(C3)C2,-15.9%
CCOCCN(C(=O)c1ccccc1Cl)c1ccccc1,-8.2%
CSc1ccccc1NC(=S)Nc1cc(C)cc(C)c1,-7.2%
Cc1c(Cl)cccc1NC(=S)NCCN1CCOCC1,-23.2%
Cc1ccc(C(C)n2cc(C(=O)NCc3ccncc3)nn2)cc1 (stereo not drawn),-14.9%
O=C(c1ccc([N+](=O)[O-])o1)N1CCN(Cc2ccccc2)CC1,-11.8%
O=C(NC1CCCc2c1cnn2-c1cc(F)cc(F)c1)c1ccc[n+]([O-])c1 (stereo not drawn),14.2%
Cc1cc(C)c(C)c(SCC(=O)Nc2oc(C)c3c(C)n[nH]c(=O)c23)c1C,-10.4%

# 4 of these compounds, set out differently.
SMILES	VDR inhibitor
Cc1cc2c(cc1S(=O)(=O)N(CCN(C)C)Cc1ccco1)OCC(=O)N2	8.2%
Cc1ccccc1-c1cncnc1Nc1ccccc1	44.7µM*
CN1OC(COC(=O)c2ccc(Cl)cc2Cl)CC1c1ccccc1 (stereo not drawn)	-18.4%
N#C/C(=C\c1c(Oc2ccccc2Cl)nc2ccccn2c1=O)C(=O)NC1CCS(=O)(=O)C1 (stereo not drawn)	?

# Following part
SMILES,VDR inhibitor
O=[N+]([O-])c1cccc(C(=S)N2CCN(c3ccc(F)cc3)CC2)c1,-18.1%
CC(=O)Nc1ccc(S(=O)(=O)Nc2nc3ccccc3nc2Cl)cc1,-10.6%
COc1cc(C=O)ccc1OC(=O)c1cccnc1,17.0%
C[C@@H]1CC[C@]2(C(=O)O)CC[C@]3(C)C(=CCC4[C@@]5(C)C[C@@H](O)[C@H](O)[C@@](C)(CO)C5[C@H](O)C[C@]43C)C2[C@H]1C (stereo partly drawn),-1.4%
COc1ccc(OC)c(NC(=O)CSC2=Nc3ccccc3C3=NC(CCC(=O)NCc4ccccc4)C(=O)N23)c1 (stereo not drawn),-3.5%
CCC(C)(C)NC(=O)C(c1ccc(C)o1)N(Cc1ccc2c(c1)OCO2)C(=O)c1snc(C(N)=O)c1N (stereo not drawn),-24.6%
CCn1c(C(=O)N2CCC(C(=O)N3CCN(c4cccc(C)c4C)CC3)CC2)cc2sccc21,-1.5%
Nc1ncnc2c1C(c1ccccc1)c1c(ccc3ccccc13)O2 (stereo not drawn),-17.9%
CCN(CC(=O)Nc1ccc(OC)cc1)C(=O)c1cc2c(s1)CCCCC2,-16.0%
CSc1ncccc1C(=O)OCC(=O)N(C)C1CCS(=O)(=O)C1 (stereo not drawn),-3.4%
CCCn1c(-c2ccc[nH]c2=O)nc2cc(C)c(C)cc21,19.2%
CN(Cc1ccccc1)C(=O)c1ccc(COc2ccccc2)cc1,-7.2%
Cc1ccc(CCNC(=O)CSCc2nc(-c3ccc(C)cc3)oc2C)cc1,-10.5%
CCOc1cc(N2CCOCC2)c(OCC)cc1NC(=O)[C@H](C)NC(=O)c1ccco1,1.4%
COc1cc(NC(=O)CCN2CC(C)OC(C)C2)cc(OC)c1 (stereo not drawn),-5.4%
Cc1ccc(OCc2ccc(C(=O)N3CCOCC3)cc2)cc1C,0.7%
CCOC(=O)C1CCC(CN(Cc2ccc(Cl)cc2)S(=O)(=O)c2cc(Cl)cc(Cl)c2)CC1 (stereo not drawn),11.8%
CCc1nc(SCC(=O)Nc2ccccc2)c2c(=O)n(C)c(=O)n(C)c2n1,-4.2%
COc1ccc(/C=C/C(=O)NC(=S)NNC(=O)c2cccnc2)cc1OC,3.9%
COc1cccc(-c2cc(C(=O)N3CCN(Cc4ccccc4)CC3)no2)c1,-11.4%
CC1(C(=O)NCc2cccnc2)CCC(=O)N1CCc1ccccc1 (stereo not drawn),-3.1%
CCCCCC(=O)Nc1ccc(Cc2ccncc2)cc1,5.1%
CN(C)c1ccc(CNC(=O)C2CCCN(S(=O)(=O)c3ccc4c(c3)CCCC(=O)N4)C2)cc1 (stereo not drawn),5.5%
COC(=O)c1ccc(CSc2n[nH]c(=S)s2)o1,-1.0%
CCOC(=O)N1CCC(NC(=O)CS(=O)Cc2nc(-c3ccc(C)cc3)oc2C)CC1 (stereo not drawn),5.4%

# Source: PubChem BioAssay
